Screening results from PubChem.
GIRK2 act – GIRK2 channel activation. P48051. HEK293-GIRK2 thallium flux, Thallos fluorescence. calls only for hits at 25 µM. actives 0.05% (n = 63,000). AID 1259325;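 active = among the strongest 0.2% of first-round signals and kept after retests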;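 also: first round at about 10 µM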
Target sequence (P48051 whole entry, looked up): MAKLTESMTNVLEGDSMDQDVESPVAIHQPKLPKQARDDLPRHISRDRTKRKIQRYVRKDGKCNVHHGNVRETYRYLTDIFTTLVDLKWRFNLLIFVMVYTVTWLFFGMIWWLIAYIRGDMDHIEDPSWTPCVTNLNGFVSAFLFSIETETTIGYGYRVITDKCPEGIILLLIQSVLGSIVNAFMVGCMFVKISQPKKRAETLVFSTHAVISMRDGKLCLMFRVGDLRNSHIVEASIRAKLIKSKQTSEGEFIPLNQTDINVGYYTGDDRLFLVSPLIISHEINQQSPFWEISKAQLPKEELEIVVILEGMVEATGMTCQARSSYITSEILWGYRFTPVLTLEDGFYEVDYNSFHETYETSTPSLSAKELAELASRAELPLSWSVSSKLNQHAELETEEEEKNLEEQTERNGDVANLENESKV
Calls only; i = inactive. These rows are one share of the data; rates above refer to the full screens.

SMILES	GIRK2 act
CCOc1cc(C2C(C(N)=O)=C(C)Nc3nc(C)nn32)ccc1OCc1ccccc1 (stereo not given)	i
CCn1c(=NC(=O)CSC(C)=O)sc2cc(F)ccc21	i
Cc1ccc2nc(C3CN(S(=O)(=O)c4ccc(C(F)(F)F)cc4)C3)[nH]c2c1	i
CCOC(=O)N1CCC(NC(=O)c2nnn(-c3ncc(C)s3)c2C)CC1	i
COc1cccc(-c2csc3c(=O)[nH]c(N4CCCC(C(=O)NCCC(C)C)C4)nc23)c1 (stereo not given)	i
COc1ccc(S(=O)(=O)NCC(c2ccsc2)N(C)C)cc1Cl (stereo not given)	i
CCOc1ccc(OCC)c(NC(=O)CSc2nccnc2N2CCN(c3ccccc3)CC2)c1	i
NC(=O)C1CCN(C(=O)c2cc(=O)c(OCc3ccc(F)cc3)c[nH]2)CC1	i
O=C(CC(c1ccccc1)c1ccccc1)NCCCn1ncccc1=O	i
CCc1ccc(S(=O)(=O)NCC2(c3ccc(OC)cc3)CCOCC2)s1	i
O=C(/C=C/c1cccs1)Nc1ccc2c(c1)N(C(=O)C1CCCC1)CC2	i
C=CCNC(=O)c1cc2c(=O)n3cccc(C)c3nc2n1Cc1ccccc1	i
CCOc1ccc(NC(=O)CN2N=NC3C(=O)N(c4ccc(OC)cc4)C(=O)C32)cc1 (stereo not given)	i
Cc1noc(CNS(=O)(=O)c2cccs2)n1	i
CCCCCn1c(-c2ccco2)nc2oc3cc(OC)ccc3c(=O)c2c1=O	i
O=C(Cn1nc2c(N3CCOCC3)nccn2c1=O)NC1CCCC1	i
CCn1c(=O)c2c(nc3n2C(C)C(C)=NN3)n(C)c1=O (stereo not given)	i
Cc1cccc(NC(=O)Cn2nc3c(SCc4ccccc4)nccn3c2=O)c1C	i
Cc1nn(-c2ccccc2)cc1/C=C/C(=O)c1ccco1	i
COc1ccc2nc(-n3nc(C)cc3NC(=O)COc3ccccc3)sc2c1	i
COc1ccc(C(=O)Nc2ccc3c(c2)CCC(=O)N3Cc2ccccc2)c(OC)c1OC	i
CNc1nn(CC(=O)Nc2ccc(C)c(Cl)c2)c(N)c1-c1nc(-c2ccc(Cl)cc2)no1	i
CCc1c(-c2nnc(-c3ccncc3)o2)nnn1-c1ccc(OC)cc1	i
COC(=O)c1ccc(S(=O)(=O)N2CCC(Oc3ccc(C(F)(F)F)cn3)CC2)cc1	i
CN1CCN(C(=O)c2cc(-c3cccs3)n(CC(=O)NCc3ccc(F)cc3)n2)CC1	i

By substructure: the compounds so far with a carbonyl joined to an NH by a bond outside any ring (15)
SMILES	GIRK2 act
CCOc1cc(C2C(C(N)=O)=C(C)Nc3nc(C)nn32)ccc1OCc1ccccc1 (stereo not given)	i
CCOC(=O)N1CCC(NC(=O)c2nnn(-c3ncc(C)s3)c2C)CC1	i
COc1cccc(-c2csc3c(=O)[nH]c(N4CCCC(C(=O)NCCC(C)C)C4)nc23)c1 (stereo not given)	i
CCOc1ccc(OCC)c(NC(=O)CSc2nccnc2N2CCN(c3ccccc3)CC2)c1	i
NC(=O)C1CCN(C(=O)c2cc(=O)c(OCc3ccc(F)cc3)c[nH]2)CC1	i
O=C(CC(c1ccccc1)c1ccccc1)NCCCn1ncccc1=O	i
O=C(/C=C/c1cccs1)Nc1ccc2c(c1)N(C(=O)C1CCCC1)CC2	i
C=CCNC(=O)c1cc2c(=O)n3cccc(C)c3nc2n1Cc1ccccc1	i
CCOc1ccc(NC(=O)CN2N=NC3C(=O)N(c4ccc(OC)cc4)C(=O)C32)cc1 (stereo not given)	i
O=C(Cn1nc2c(N3CCOCC3)nccn2c1=O)NC1CCCC1	i
Cc1cccc(NC(=O)Cn2nc3c(SCc4ccccc4)nccn3c2=O)c1C	i
COc1ccc2nc(-n3nc(C)cc3NC(=O)COc3ccccc3)sc2c1	i
COc1ccc(C(=O)Nc2ccc3c(c2)CCC(=O)N3Cc2ccccc2)c(OC)c1OC	i
CNc1nn(CC(=O)Nc2ccc(C)c(Cl)c2)c(N)c1-c1nc(-c2ccc(Cl)cc2)no1	i
CN1CCN(C(=O)c2cc(-c3cccs3)n(CC(=O)NCc3ccc(F)cc3)n2)CC1	i

The listing picks up, repeating the 3 entries before the break.
SMILES	GIRK2 act
CCc1c(-c2nnc(-c3ccncc3)o2)nnn1-c1ccc(OC)cc1	i
COC(=O)c1ccc(S(=O)(=O)N2CCC(Oc3ccc(C(F)(F)F)cn3)CC2)cc1	i
CN1CCN(C(=O)c2cc(-c3cccs3)n(CC(=O)NCc3ccc(F)cc3)n2)CC1	i
CC(C)N(CC#CCNC(=O)c1cncc(Br)c1)C(C)C	i
CCOc1ccc(OCC(=O)Nc2cc(C3CC3)nn2-c2nc3c(c(=O)[nH]2)CCC3)cc1	i
O=C(CCS(=O)(=O)Cc1ccccc1)Nc1cccc(Br)c1	i
COc1cccc(N2CCCn3c2nc2c3c(=O)n(CC(N)=O)c(=O)n2C)c1	i
COc1ccc(CNc2oc(-c3ccc(COc4ccc(OC)cc4)o3)nc2C#N)cc1	i
Cc1ccc(-n2c(=O)c3ccccc3n(Cc3nc(-c4cccs4)no3)c2=O)cc1C	i
CC(C)Cn1c(SCc2ccc([N+](=O)[O-])cc2)nc2cc(C(=O)NC(C)C)ccc2c1=O	i
COc1ccc(C(=O)NC2=N/C(=C(/C#N)C(=O)NCc3ccco3)c3ccccc32)cc1	i
CCOC(=O)c1cnc2ccc(NC(=O)c3ccccc3F)cc2c1N	i
Cc1nn(S(=O)(=O)c2ccccc2)c(C)c1Cl	i
Cc1cc(C)c(NC(=O)COC(=O)c2ccco2)c(C)c1	i
O=C(CN1C(=O)c2ccccc2C1=O)NCCN1CCN(c2ccccc2F)CC1	i
COc1cc(OC)c(NC(=O)Cn2nc3ccc(-c4ccc(C)c(C)c4)nn3c2=O)cc1Cl	i
COc1cc([N+](=O)[O-])cc2cc(C(=O)NC3CCCCCC3)c(=O)oc12	i
NC(=O)CN1C(=O)C2(SCC(=O)N2c2ccc(F)c(F)c2)c2ccccc21 (stereo not given)	i
O=C(NCC1CCN(C(=O)c2cccnc2)CC1)C1COc2ccccc2O1 (stereo not given)	i
COc1ccc(C2CCCN2CCNC(=O)Nc2ccccc2)cc1 (stereo not given)	i
C=CCN1CC(c2nc3ccccc3n2Cc2ccc(F)cc2)CC1=O (stereo not given)	i
Cc1nc2ccc(NC(=O)c3cc([N+](=O)[O-])ccc3Cl)cc2s1	i
Cc1cn2c3c(=O)[nH]c(=O)n(C)c3nc2n1-c1ccc(C(N)=O)cc1	i
CSc1ccc(-c2noc(Cn3cnc4c(nnn4Cc4ccccc4)c3=O)n2)cc1	i
CN1CCc2c(sc(NC(=O)CCSc3ccc(F)cc3)c2-c2nc3ccccc3s2)C1	i
COCCNC(=O)Nc1nnc(-c2ccccc2Cl)o1	i
O=C(Nc1ccc2c(c1)C(=O)N1CCCCC1CCO2)c1ccco1 (stereo not given)	i
COC(=O)c1scc(-c2ccc(C)cc2)c1S(=O)(=O)Nc1ccc(OC)cc1OC	i

Going on with the list:
SMILES	GIRK2 act
COc1ccc(S(=O)(=O)Nc2nc3ccccc3nc2NCCC2=CCCCC2)cc1	i
COCC(=O)NCCNc1cc(Nc2cc(C)ccn2)nc(C)n1	i
O=C(NCC1(c2ccc(F)cc2)CCOCC1)c1ccc(Cl)cc1Cl	i
COc1ccc(Cn2cnc3c4ccccc4n(CC(=O)NCCc4ccccc4)c3c2=O)cc1	i
Cc1noc(CNC(=O)C23CC4CC(CC(C4)C2)C3)n1	i
O=C(Nc1nccs1)C1CCN(C(=O)CCn2ccc(=O)[nH]c2=O)CC1	i
O=C(CSc1ncc2c(n1)-c1ccccc1N(Cc1ccccc1)S2(=O)=O)Nc1ccccc1	i
Cc1ccc(NC(=O)c2ccc3ccccc3c2)cc1N1CCCC1=O	i
Cc1ccc(-n2cc(C(=O)N3CCC(NC(=O)Cc4ccc(F)cc4)CC3)nn2)cc1C	i
O=c1cc(CN2CCN(Cc3ccc4c(c3)OCO4)CC2)c2cc3c(cc2o1)OCO3	i
CCOC(=O)c1sc2ccccc2c1S(=O)(=O)N1CCN(c2ccc(C(C)=O)cc2)CC1	i
COC(=O)CCn1c(=O)c2c(nc3n(C4CCCCC4)c(C)c(C)n23)n(C)c1=O	i
CC1=C(C(N)=O)C(c2ccc(OC(F)(F)F)cc2)n2ncnc2N1 (stereo not given)	i
O=C(NCc1ccc(C(O)c2cccs2)s1)C12CC3CC(CC(C3)C1)C2 (stereo not given)	i
Cc1cc(NS(=O)(=O)c2ccc(NC(=O)c3coc(NC(=O)c4cnccn4)n3)cc2)nc(C)n1	i
O=C(Nn1cnc2c(cnn2-c2ccccc2)c1=O)c1ccc(Cl)cc1Cl	i
CCN(CC)C(=O)[C@]1(c2ccccc2)C[C@@H]1CN	i
C[C@H]1O[C@@H](O[C@H]2[C@@H](O)C[C@H](O[C@H]3[C@@H](O)C[C@H](O[C@H]4CC[C@@]5(C)[C@H](CC[C@@H]6[C@@H]5C[C@@H](O)[C@]5(C)C(C7=CC(=O)OC7)CC[C@]65O)C4)O[C@@H]3C)O[C@@H]2C)C[C@H](O)[C@@H]1O (stereo not given in full)	i
CCC(C)n1c(C)cn2c3c(=O)[nH]c(=O)n(C)c3nc12 (stereo not given)	i
COc1cccc(CNC(=O)C(=O)Nc2cc(C)nc3ccccc23)c1	i
Cc1ccccc1-n1c(-c2ccccc2)cn2c3c(=O)n(CC(N)=O)c(=O)n(C)c3nc12	i
COc1cc(C)c(C)cc1S(=O)(=O)NCC(C)(O)c1ccco1 (stereo not given)	i
Cc1ccc(NC(=O)Cn2cc(S(=O)(=O)N3CCCCCC3)ccc2=O)c(C)c1	i
COc1cc(-c2noc(Cn3cnc4c(nnn4Cc4ccc(C)cc4)c3=O)n2)cc(OC)c1OC	i
Cc1ccc(S(=O)(=O)N(CC(=O)c2ccc(Cl)cc2)C(=O)N2CCN(C)CC2)cc1	i

(next part)
SMILES	GIRK2 act
O=C(NCCn1nc(C2CC2)n(-c2ccccc2)c1=O)Nc1cccc(C(F)(F)F)c1	i
CCSc1nnc(NC(=O)CN2CCC(c3nnc(C(F)(F)F)o3)CC2)s1	i
COc1ccc(N2C(=O)C3N=NN(CC(=O)Nc4cccc(SC)c4)C3C2=O)cc1Cl (stereo not given)	i
CCc1c(C)nc(-n2nc(C3CC3)cc2NC(=O)COC)[nH]c1=O	i
CC(=O)Cn1c(=O)c2c(nc3n(-c4cc(Cl)ccc4C)c(-c4ccccc4)cn23)n(C)c1=O	i
Cc1cc(C)cc(NC(=O)Cn2nc3c(Sc4ccccc4)nccn3c2=O)c1	i
O=C(CSC1CCCC1)NCC1(O)CCc2ccccc21 (stereo not given)	i
COC(=O)c1ccc2c(=O)nc3n(c2c1)Cc1ccccc1-3	i
COc1ccc(-n2nnc(-c3nc(-c4cccc(OC)c4)cs3)c2N)cc1	i
COc1cc(C2C(C(=O)Nc3ccccc3)C(C)Nc3ncnn32)ccc1O (stereo not given)	i
COc1ccccc1OCC#CCNC(=O)c1ccccc1SC	i
COc1ccccc1OCC(=O)N1CCC(Cn2ccnc2)CC1	i
COc1ccc(Cl)cc1S(=O)(=O)NC1(c2nc(C)no2)CCCCC1	i
O=[N+]([O-])c1ccc2sc(Cl)nc2c1	i
Cc1ncc2c(SCC(=O)Nc3ccc(Br)cc3)ncnc2n1	i
CCn1c(=O)c2c(nc3n(-c4ccc(OC)cc4OC)c(C)c(C)n23)n(C)c1=O	i
O=C(NCc1ccccc1OC(F)(F)F)c1nnn(-c2ccc(F)cc2)n1	i
O=C(CSc1nnc2ccc3ccccc3n12)Nc1nc(-c2ccccc2)ns1	i
Cc1noc(CNC(=O)C2CCN(C(=O)C(C)(C)Oc3ccc(Cl)cc3)CC2)n1	i
CCCn1c(=O)c2c(nc3n2CC(C)CN3c2ccccc2OC)n(C)c1=O (stereo not given)	i
COc1ccc(/C=C/c2cc(Cl)cc(Cl)c2)cc1	i
O=C(Nc1nc2c(s1)COCC2)c1csc(-c2ccccc2)n1	i
Cc1ccc(OCC(=O)NCCCS(=O)(=O)N2CCN(c3ccccc3F)CC2)cc1	i
C=CCNC(=O)Nc1nc(-c2ccc(OCCC)cc2)cs1	i
O=C(/C=C/c1ccco1)NCc1nn(C2CCCC2)c(=O)c2ccccc12	i

Later entries.
SMILES	GIRK2 act
CCn1c(N2CCN(C(c3ccccc3)c3ccccc3)CC2)nc2c1c(=O)[nH]c(=O)n2C	i
Cc1oncc1C(=O)NCC1(c2cccs2)CCCC1	i
O=C(Nc1cccc2cccnc12)c1ccc(OCc2nc(C3CC3)cs2)cc1	i
COC(=O)CC1=CC(SCC(=O)Nc2ccc(F)cc2F)=Nc2ccccc2N1	i
COc1ccc(C2SCCN2S(=O)(=O)c2ccc3cccc4c3c2CC4)cc1Br (stereo not given)	i
COc1c[nH]c(C(=O)Nc2ccc(F)c(Cl)c2)cc1=O	i
Cn1nc(CNS(=O)(=O)c2cccc(C(F)(F)F)c2)c2ccccc2c1=O	i
COc1ccc(OC)c(-c2cc(C(=O)NCCn3nc(-c4ccccn4)n(C)c3=O)[nH]n2)c1	i
CCOC(=O)C1=C(COCCN)NC(C)=C(C(=O)OC)C1c1ccccc1Cl (stereo not given)	i
CCOc1ccc(CNC(=O)C2CCN(c3cc(Oc4ccccc4)ncn3)CC2)cc1OCC	i
CC(Oc1ccccc1)C(=O)N1CCN(Cc2nc3ccccc3n2C)CC1 (stereo not given)	i
C=CCn1c(=O)c2c(nc3n(-c4ccc(OC)cc4)c(C)c(C)n23)n(C)c1=O	i
Cc1nc(SCc2ccccc2)[nH]c(=O)c1CC(=O)N1CCN(S(C)(=O)=O)CC1	i
Cn1cccc1C(CNC(=O)CCc1ccccc1)N1CCOCC1 (stereo not given)	i
Cc1cccc(N2CCN(c3nccnc3SCC(=O)Nc3cc(F)ccc3F)CC2)c1C	i
COc1cc(-c2noc(Cn3nc(-c4ccc(C(C)C)cc4)ccc3=O)n2)cc(OC)c1OC	i
COc1ccccc1N1C=C(C#N)S(=O)(=O)c2c(F)cccc21	i
COc1cc(C(=O)Oc2cc(C)c3c(c2)O/C(=C\c2ccncc2)C3=O)cc(OC)c1OC	i
CN1CCN(c2nc3c(c(=O)n(C)c(=O)n3C)n2CCCOc2ccccc2)CC1	i
O=C(NCc1cc(-c2ccncc2)n(C2CCCC2)n1)Nc1ccccc1Cl	i
Cc1cc(NC(=O)c2ccccc2F)n(-c2nc3c(F)cccc3s2)n1	i
O=C(NCCCc1ccccc1)c1cn(-c2cccc(Cl)c2)nn1	i
O=C1CC(C(=O)Nc2nc3ccc(Cl)cc3s2)c2ccccc21 (stereo not given)	i
COCCCn1c(C(=O)NCCCn2ccnc2)cc2c(=O)n(C)c(=O)n(C)c21	i
